Screening results: PubChem, several laboratories
Sa RN4220 lethal: S. aureus RN4220 growth inhibition; OD600, 16 h; inhibition, % (test concentration not listed); 330,000 compounds, 0.33% hits;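 active = z-score of -3 or lower and OD600 up to 0.18 on both plates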;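 also: plate controls were untreated cells for no effect and reference antibiotic for full effect; stock transfer was 100 nL into about 80 µL; one replicate is shown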
BJeLR viability: BJeLR cell viability loss | 300,000 compounds, 0.17% hits | inhibition, % (concentration not given with the values) | BJeLR (HRASV12) viability, CellTiter-Glo ATP luminescence, 48 h; reference of the scale not given here;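 active = replicate mean above 50%; inconclusive = above 50% but judged a plate artefact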;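 also: 50 nL library stock added to about 25 µL; numbers are from one replicate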
Mtb hypoxia rep: Mtb hypoxia fluorescent reporter inhibition | M. tuberculosis hypoxia-regulated fluorescent reporter, fluorescence | fluorescence inhibition, % (test concentration not listed) | 300,000 compounds, 0.1% hits | AID 1159583;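 active = 35 to 45% if threefold the growth effect, above 45% if 1.5-fold the growth effect; inactive = the rest, general growth blockers included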;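 also: wells of about 50 µL received 100 nL stock; 0% = vehicle wells and 100% = reference inhibitor wells; whole bacteria with a GFP reporter of the hypoxia response; strong numbers were not always called active; many hits fall short of the cut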
Autofluor counter: flagged as autofluorescent in microsphere protease counterscreen; 360,000 compounds, 3.1% hits; fluorescence intensity (concentration not given with the values); compound autofluorescence counterscreen, microsphere flow cytometry; active compounds read high;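 active = at least 3 SD above the mean of all compounds, about 16000 in these data; inconclusive = too few beads counted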;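 also: 100 nL of 1 mM stock went into each well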
ugtP null kill: growth inhibition of S. aureus ugtP deletion strain; S. aureus RN4220 ugtP deletion, OD600 growth, 16 h; some inactives read as strong as hits; growth inhibition, % (no concentration beside the values); 330,000 compounds, 0.54% hits;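 active = z-score under -3 and OD600 up to 0.15 on both plates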;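 also: plate controls were untreated wells for no effect and antibiotic for full effect; wells of about 80 µL received 100 nL stock; the first replicate is given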
PrP UTR inh: inhibition of PrP 5' UTR reporter expression | 340,000 compounds, 0.35% hits | cell-based PrP 5' UTR mRNA reporter, plate reader | AID 488862 | inhibition, % (test concentration not listed);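 active = every replicate at 50% or more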;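 also: 0 = median of the neutral control wells; tested in H4 reporter cells; numbers are from one replicate; inactives centre near -14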
Mtb hypoxia rep growth: second read-out of Mtb hypoxia rep, no call of its own (marks repeat the call); growth inhibition, %; measured here: M. tuberculosis growth (absorbance);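 0% = vehicle and 100% = reference antibiotic; read after six days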
Numbers without * were called inactive; ? = inconclusive; . = no result given.

Every second line gives: Sa RN4220 lethal	Mtb hypoxia rep	ugtP null kill	Mtb hypoxia rep growth	BJeLR viability	Autofluor counter	PrP UTR inh
- OCC1(Cc2ccc(F)cc2F)CCCN(Cc2ccc(Cl)cc2)C1 (configuration not stated)
    -0.2	-10	-12	5	-1	3962	-15
- CCOC(=O)C1=C(C)NC(=O)NC1c1ccc(OC)c(Cl)c1 (configuration not stated)
    2.2	3	-3	11	8	11561	-29
- CN=C(Nc1ccc2c(c1)OCO2)SC1CC(=O)N(c2ccccc2)C1=O (configuration not stated)
    0.1	-5	4	-11	1	4151	-11
- CN(C)CCCN(C(=O)c1sc2ccccc2c1Cl)c1nc2ccc(F)cc2s1
    -5.2	2	-11	-2	0	7437	-35
- S=c1[nH]nc(COc2ccc(Cl)cc2Cl)n1-c1ccccc1
    4.6	20	0	3	-5	.	-3
- COc1ccccc1N(CC(=O)NCC(C)C)S(=O)(=O)c1cccs1
    4.6	5	0	15	21	6829	-16
- CC(=O)NC1(c2ccccc2)CCN(c2cc(C)nc(-c3ccccc3)n2)CC1
    0.8	2	3	9	5	2045	-30
- O=C(N/N=C/c1ccc(Br)o1)c1ccc2c(c1)OCCO2
    .	.	.	.	4	2280	-50
- CCNC(=S)NNC(=O)c1csc(CC)c1
    1.3	-2	3	-3	5	3264	-18
- CCN(C(=O)CSc1nc(C)nc2sc3c(c12)CCC3)C1CCS(=O)(=O)C1 (configuration not stated)
    -0.7	-5	-3	2	.	3833	.
- CN1CCN(c2ccc(NC(=O)c3ccc(Br)o3)cc2)CC1
    2.7	5	2	9	7	4767	-59
- CCOC(=O)CC(=O)CSc1nc2cc(C)ccc2cc1C
    4.5	-1	0	5	-7	3785	10
- CC(CN(C)Cc1ccccc1)OC(=O)c1ccc(F)cc1 (configuration not stated)
    6.3	15	10	3	9	2438	-7
- C=CCN(c1ccccc1)S(=O)(=O)c1cccc(C(=O)N(CC)CC(=O)Nc2c(F)cccc2F)c1
    9.4	-1	-1	-4	1	5332	-34
- N=c1c2c(ncn1CCCO)Oc1ccc3ccccc3c1C2c1ccccc1 (configuration not stated)
    -2.5	11	-3	9	0	.	.

Complete entries, looked up by structure.
CN1CCN(c2ccc(NC(=O)c3ccc(Br)o3)cc2)CC1 is listed with Sa RN4220 lethal = 2.7; Mtb hypoxia rep = 5; ugtP null kill = 2; Mtb hypoxia rep growth = 9; BJeLR viability = 7; Autofluor counter = 4767; PrP UTR inh = -59
CN(C)CCCN(C(=O)c1sc2ccccc2c1Cl)c1nc2ccc(F)cc2s1 is listed with Sa RN4220 lethal = -5.2; Mtb hypoxia rep = 2; ugtP null kill = -11; Mtb hypoxia rep growth = -2; BJeLR viability = 0; Autofluor counter = 7437; PrP UTR inh = -35
CC(=O)NC1(c2ccccc2)CCN(c2cc(C)nc(-c3ccccc3)n2)CC1 is listed with Sa RN4220 lethal = 0.8; Mtb hypoxia rep = 2; ugtP null kill = 3; Mtb hypoxia rep growth = 9; BJeLR viability = 5; Autofluor counter = 2045; PrP UTR inh = -30

Additional compounds follow:
Every second line gives: Sa RN4220 lethal	Mtb hypoxia rep	ugtP null kill	Mtb hypoxia rep growth	BJeLR viability	Autofluor counter	PrP UTR inh
- COc1ccc2ccccc2c1/C=N/NC(=O)c1sc(N)c(C#N)c1C
    .	.	.	.	5	8579	-22
- CC1CC(C)CN(CCCNC(=O)c2cn(C)c3ccc(S(=O)(=O)N4CCCC4)cc3c2=O)C1 (configuration not stated)
    4.3	-11	9	0	5	3386	1
- COc1cccc(-n2c(=O)[nH]cc(C(=O)Nc3ccc(NC(C)=O)cc3)c2=O)c1
    6.7	6	6	6	3	4702	16
- O=C(Nc1cccc(Cl)c1Cl)Nn1cnnc1
    2.5	-3	10	-9	-4	?	-27
- O=C(NN1C(=O)C2C3C=CC(O3)C2C1=O)c1cccc(O)c1 (configuration not stated)
    6.7	7	7	11	-2	7987	-2
- O=[N+]([O-])c1ccccc1S(=O)(=O)Oc1ccccc1C=Nn1cnnc1
    9.5	-8	2	-11	.	.	.
- FC(F)(F)c1ccc(CN2CC3C(c4ccc(Cl)nc4)C4(c5cccnc5)CC3(C4)C2c2ccccc2)cc1 (configuration not stated)
    -9.9	-13	2	0	.	.	.
- CC(=O)Oc1ccc(C(=O)Nc2ccccc2C(=O)Nc2ccc(C(=O)O)cc2)cc1
    6.2	-9	0	0	-2	4184	-10
- Cc1ccc(CN2CCN(/N=C/c3cc([N+](=O)[O-])ccc3Cl)CC2)cc1
    .	.	.	.	4	2821	-8
- CC(C)(C)NC(=O)C[C@H]1C[C@H](C(=O)N2CCCCC2)[C@@]2(C)c3[nH]c4cc(-c5ccco5)ccc4c3CCN2C1=O
    1.7	-1	8	2	.	3520	-7
- CC(C)N1CCN(Cc2ccccc2C(F)(F)F)CC1CCO (configuration not stated)
    1.8	2	7	6	-1	3357	-27
- CC(=O)N1C(=S)NC(=O)/C1=C1/C(=O)N(CC(=O)Nc2cccc(C)c2)c2ccccc21
    -0.3	-7	-3	0	18	2311	-12
- Cc1ccc(Cn2nnc3c(=O)[nH]c(C4CCCN(S(=O)(=O)c5ccccc5)C4)nc32)cc1 (configuration not stated)
    10	10	10	1	-4	4287	-5
- COC(=O)c1nc(N)sc1-c1ccc(Cl)c(Cl)c1
    1.3	7	1	1	-4	4215	16
- COc1ccc(NS(=O)(=O)c2ccc3c(c2)N(C(C)=O)CCO3)c(OC)c1
    -1.6	9	-4	5	6	4205	8
- Cc1nn(C)c(Oc2ccc(Cl)cc2)c1C(=O)Nc1ccc(F)cc1F
    0.5	4	13	3	6	9770	-25
- CC1CCCC(NC(=O)COC(=O)CCSc2ccccc2)C1C (configuration not stated)
    3.7	-6	-7	1	-7	4812	-1
- CCc1nnc(NC(=O)c2cc(S(=O)(=O)N(C)c3ccc(OC)cc3)ccc2Cl)s1
    9.8	0	1	0	-1	6844	-14
- CCOc1c2ccc(C(=O)N[C@H](C)C3CCCCC3)cc2nn1CCOC
    .	.	.	.	10	2845	-6
- CC(Oc1ccc(C(C)(C)C)cc1)c1ccnc2nc(N=CN(C)C)nn12 (configuration not stated)
    2.5	8	16	15	.	.	.
- COc1ccc(NC(=O)C=Cc2cc(Br)ccc2OC)cc1
    34	8	12	8	.	.	.
- Cc1noc(C)c1C(=O)Nc1ccc(F)c(F)c1
    4.5	.	11	.	3	2935	-5
- CCCCN(CCCNC(=O)C1CCN(S(=O)(=O)N2CCOCC2)CC1)Cc1ccccc1
    -17	5	-7	8	.	3165	-21
- O=C1CN(C(=O)/C=C/c2ccco2)c2ccccc2N1
    1.8	9	-1	14	-4	4060	-25
- CC(NC(=O)CN(C)CC(=O)Nc1cccc(F)c1)c1ccccc1 (configuration not stated)
    3.4	1	5	4	.	3390	-21
- COc1ccc(/C=C(\NC(=O)c2ccc(C)cc2)C(=O)NCCN2CCOCC2)cc1
    .	.	.	.	-3	4198	-8
- COC(=O)c1[nH]c2c(c1C)C(=O)CC(c1ccc(OC)cc1)C2 (configuration not stated)
    0.7	10	-5	5	-1	4183	-19
- CCc1nnc(NC(=O)CSc2nc(C)nc3c2c(=O)n(C)c(=O)n3C)s1
    4.3	11	19	0	7	5342	-5
- COc1cc(NC(=S)NC(=O)c2cc(C)cc(C)c2)ccc1NC(=O)c1cccs1
    27	2	1	-5	6	3557	-17
- CC(CN1CCCCC1)OC(=O)Cc1ccc(Cl)cc1 (configuration not stated)
    -0.9	.	-5	.	-15	3285	2
- Cc1csc(=NC(=O)c2ccccc2)n1CCO
    8.9	17	-7	14	8	4316	-26
- CC1=C([N+](=O)[O-])C(c2ccc(Cl)cc2)NC(=O)N1 (configuration not stated)
    3.1	3	16	5	-1	4123	-38
- COc1ccc(S(=O)(=O)N2CCCCCC2)cc1C(=O)N(C)Cc1c(F)cccc1Cl
    5.5	8	7	6	.	8925	-23
- CCOCC(=O)Nc1ccc(F)c(F)c1
    .	.	.	.	0	2951	6
- CCCCN1CCC(COC(=O)c2cc(Cl)c(N)c3c2OCCO3)CC1
    -0.1	0	-3	7	.	5560	-18
- O=C(c1cccc(-c2ccccc2F)c1)N1CC[C@@H](N2CCC(O)CC2)[C@H](O)C1
    1.8	7	1	1	-3	13372	-10
- Cc1nc2ccc(S(=O)(=O)Nc3cccc(-c4nc5cccnc5s4)c3)cc2s1
    6.1	0	32	0	4	4381	-13
- COc1ccc(/C=N\NS(=O)(=O)c2ccc(C)cc2)cc1COc1ccccc1[N+](=O)[O-]
    .	.	.	.	-3	4666	2
- CC(=O)c1ccc(NC(=O)/C(C#N)=C/c2ccncc2)cc1
    3.1	8	-3	-8	6	6241	-2
- COc1cc(C(=O)Nc2ccc(C)cc2C(NCC(=O)NN)c2ccccc2)cc(OC)c1OC (configuration not stated)
    1.3	-6	9	4	1	3816	-27
- Cc1ccc(C)c(N2C(=O)CN=C2Nc2ccccc2Cl)c1
    5.5	7	11	-2	-1	3528	-9
- Cc1ccc(-c2ccc(/C=C3\C(=O)ON=C3c3ccccc3)o2)c([N+](=O)[O-])c1
    9.7	7	21	12	0	?	4
- O=C(CCc1nnc(CCCCc2ccccc2)o1)NCCC1CCCCO1 (configuration not stated)
    -0.4	-5	-5	-14	-8	4206	-34
- CCOc1ccc(N(CC(=O)O)S(=O)(=O)c2ccc(F)cc2)cc1
    6.9	.	4	.	.	3538	-8
- COc1ccc(CSc2nnnn2C)cc1F
    -1.8	.	9	.	1	2398	-41

Retrieved one by one from the list above:
Every second line gives: Sa RN4220 lethal	Mtb hypoxia rep	ugtP null kill	Mtb hypoxia rep growth	BJeLR viability	Autofluor counter	PrP UTR inh
- Cc1csc(=NC(=O)c2ccccc2)n1CCO
    8.9	17	-7	14	8	4316	-26
- CC(=O)c1ccc(NC(=O)/C(C#N)=C/c2ccncc2)cc1
    3.1	8	-3	-8	6	6241	-2
- CCOCC(=O)Nc1ccc(F)c(F)c1
    .	.	.	.	0	2951	6
- COc1ccc(S(=O)(=O)N2CCCCCC2)cc1C(=O)N(C)Cc1c(F)cccc1Cl
    5.5	8	7	6	.	8925	-23
- Cc1nc2ccc(S(=O)(=O)Nc3cccc(-c4nc5cccnc5s4)c3)cc2s1
    6.1	0	32	0	4	4381	-13
- O=C(c1cccc(-c2ccccc2F)c1)N1CC[C@@H](N2CCC(O)CC2)[C@H](O)C1
    1.8	7	1	1	-3	13372	-10

More entries follow:
Every second line gives: Sa RN4220 lethal	Mtb hypoxia rep	ugtP null kill	Mtb hypoxia rep growth	BJeLR viability	Autofluor counter	PrP UTR inh
- CCOc1cc2c(cc1OCC)-n1cccc1C(c1ccc(OC(F)F)cc1)NC2 (configuration not stated)
    2.1	-11	-6	-6	9	4109	-1
- COCCCNS(=O)(=O)c1ccc(Oc2ncc(C(F)(F)F)cc2Cl)cc1
    4.1	12	7	9	0	8145	-9
- FC(F)C(F)(F)Oc1cccc(-c2n[nH]c(=S)n2Cc2ccccc2)c1
    2.1	9	-4	-10	.	6269	-43
- CCN(CC)c1cc2nc(C)n(Cc3ccccc3)c(=O)c2cc1NC(=O)C1CC1
    -2.0	.	8	.	5	4607	-32
- Cc1ccc(C)c(OCC(O)CN2CCC(CN3C(=O)c4cccc5cccc(c45)C3=O)CC2)c1 (configuration not stated)
    -4.0	-2	-12	21	-4	2823	-3
- CN(C(=O)c1cccc(C#N)c1)c1nnc(-c2cnccn2)s1
    -1.8	.	-3	.	-12	3081	-9
- COC(C)(C)C(O)COc1c2ccoc2cc2oc(=O)ccc12 (configuration not stated)
    5.9	-1	2	13	.	.	.
- Cc1n[nH]c(C)c1S(=O)(=O)N1CCN(C2CCCCC2)CC1
    1.7	.	13	.	1	2667	-14
- CC1=Nc2ccccc2/C1=C/c1c(C)[nH]c2ccccc12
    51	-2	-12	6	.	2283	-6
- CC(/C=C/c1ccco1)=NNC(=O)c1cccc(Cl)c1
    -1.0	2	-5	-5	.	.	.
- COc1ccc(S(=O)(=O)Nc2ccccc2C(=O)N2CCOCC2)cc1OC
    2.7	7	8	8	9	5290	-10
- O=C(Cn1cncn1)N/N=C/c1ccccc1O
    .	.	.	.	7	5152	-38
- O=C1CCCC2=C1C(O)(C(F)(F)F)C(=O)N2Cc1ccccc1 (configuration not stated)
    3.8	-3	5	-5	0	15826	-4
- O=C(OCC(=O)N1CCCCCC1)c1ccc([N+](=O)[O-])cc1Cl
    0.4	20	0	15	8	4734	-20
- Clc1ccccc1OCc1nn[nH]n1
    2.8	8	8	10	5	4500	-27
